Compound activity (PubChem BioAssay)
TRPML1 agonist: qHTS for Agonists of the Human Mucolipin Transient Receptor Potential 1 (TRPML1); TRPML1-expressing cells, Ca2+ dye fluorescence, FDSS; host cell line not named in the record; reference of the full effect not given here; activation, % (concentration not given with the values); 410,000 compounds, 0.12% hits; AID 624414, 2012; in the data active = activation above about 50%; inconclusive = about 30% to 50%; inactive = below about 30%; note: 0% is about no effect; the text of the record puts the active cut at 80%
Target sequence (Q9GZU1 whole entry, looked up): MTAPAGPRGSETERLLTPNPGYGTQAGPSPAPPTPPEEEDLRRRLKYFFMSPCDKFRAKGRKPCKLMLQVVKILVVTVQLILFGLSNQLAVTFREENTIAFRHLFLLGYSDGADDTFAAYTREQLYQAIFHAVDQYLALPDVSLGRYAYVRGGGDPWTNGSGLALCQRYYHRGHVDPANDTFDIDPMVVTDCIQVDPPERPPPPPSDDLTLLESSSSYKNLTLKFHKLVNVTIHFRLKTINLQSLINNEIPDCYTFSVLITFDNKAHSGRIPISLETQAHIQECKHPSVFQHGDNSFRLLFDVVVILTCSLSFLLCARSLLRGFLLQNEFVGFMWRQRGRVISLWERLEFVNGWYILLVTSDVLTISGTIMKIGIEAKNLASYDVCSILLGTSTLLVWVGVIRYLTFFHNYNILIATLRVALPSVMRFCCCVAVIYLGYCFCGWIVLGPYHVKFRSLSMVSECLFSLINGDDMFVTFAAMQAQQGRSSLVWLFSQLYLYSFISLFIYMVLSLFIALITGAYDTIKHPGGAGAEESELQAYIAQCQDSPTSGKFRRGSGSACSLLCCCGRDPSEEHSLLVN
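Tetracycline-induced TRPML1-DL cells are seeded and incubated overnight before loading with a no-wash Ca2+ dye and quencher. Agonist activity is taken from the 110 s fluorescence read following compound pin-transfer on an FDSS, before EC80 54-4 challenge.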
TRPML1 inh: qHTS for Inhibitors of the Human Mucolipin Transient Receptor Potential 1 (TRPML1); 390,000 compounds, 0.02% hits; activity change, negative = inhibition, % (test concentration not listed); TRPML1-inducible cells, Ca2+ dye fluorescence, FDSS; stronger effect = lower value; inhibition of EC80 agonist-evoked calcium signal; AID 624415, 2012; in the data active means activity change below about -50%; inconclusive means about -30% to -50%; inactive means above about -30%;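 note: stimulus is agonist 54-4 at its EC80 concentration; % is set by controls: 0 for no effect and ±100 for the full control effect; compound concentration not given in the record; the text of the record puts the active cut at -80%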
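Tet-induced TRPML1-DL cells loaded with Ca8 no-wash calcium dye were read kinetically on FDSS. Compound addition was followed by EC80 agonist 54-4 (4 uM final); inhibition was read over 110 s.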
CtBP-E1A blk: qHTS Assay for Inhibitors of the CtBP/E1A Interaction | CtBP / adenovirus E1A interaction (AlphaScreen) | AlphaScreen GST-E1A/His-CtBP binding, 1536-well; stronger effect = lower value; control for the full effect not named in the record | activity change, % (no concentration beside the values) | 340,000 compounds, 0.49% hits | AID 651724, 2012; in the data active means activity change below about -65%; inconclusive means about -30% to -65%; inactive means above about -30%; note: % is set by controls: 0 for no effect and ±100 for the full control effect
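AlphaScreen with 125 nM GST-E1A and 125 nM His-CtBP (5X stocks) in Tris pH 8.0, 300 mM NaCl, BSA, Tween 20, TCEP. Compounds preincubated 2 h at 37 deg C, then glutathione donor/nickel acceptor beads added for 1 h at 37 deg C in dark.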
D2 agonist: Beta-Arrestin HTS for Positive Allosteric Modulators of the Human D2 Dopamine Receptor: Agonists; DiscoveRx PathHunter D2 beta-arrestin, luminescence, 90 min; 100% = 57 uM dopamine signal; activation, % (concentration not given with the values); D(2) dopamine receptor (Homo sapiens), P14416; 360,000 compounds, 0.084% hits; in the data active = activation above about 40%; inconclusive = about 15% to 40%; inactive = below about 15%; note: the text of the record calls up to 30% inactive
Target sequence (P14416 whole entry, looked up): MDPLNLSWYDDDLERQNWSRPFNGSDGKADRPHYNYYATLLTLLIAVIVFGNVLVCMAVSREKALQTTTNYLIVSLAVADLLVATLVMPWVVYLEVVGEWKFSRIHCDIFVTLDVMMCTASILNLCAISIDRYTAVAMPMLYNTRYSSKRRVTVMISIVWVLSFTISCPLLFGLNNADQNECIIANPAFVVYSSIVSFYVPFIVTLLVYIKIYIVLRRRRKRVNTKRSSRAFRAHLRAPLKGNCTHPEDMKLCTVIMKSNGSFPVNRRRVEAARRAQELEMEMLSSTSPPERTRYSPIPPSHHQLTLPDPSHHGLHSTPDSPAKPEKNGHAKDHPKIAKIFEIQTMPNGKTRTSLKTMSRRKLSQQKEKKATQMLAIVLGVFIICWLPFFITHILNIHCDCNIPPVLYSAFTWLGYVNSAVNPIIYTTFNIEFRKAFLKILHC
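DiscoveRx PathHunter D2 beta-arrestin cells (2,100/well) attached overnight, then compound-stimulated 90 min at 37 C in HBSS/10 mM HEPES/0.1% Tween-20 buffer; beta-galactosidase complementation read by luminescence after 1 h at ambient temperature. Dopamine 57 uM final (EC100) as control.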
Six1-Eya2 blk: qHTS Assay for Inhibitors of the Six1/Eya2 Interaction. Homeobox protein SIX1 (Homo sapiens) + Protein phosphatase EYA2 (Homo sapiens), …. AlphaScreen GST-Six1/His-Eya2 binding, biochemical; stronger effect = lower value; control for the full effect not named in the record. AID 651725, 2012. activity change, % (test concentration not listed). 360,000 compounds, 0.56% hits; in the data active = activity change below about -65%; inconclusive = about -30% to -65%; inactive = above about -30%; note: % is set by controls: 0 for no effect and ±100 for the full control effect
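Six1/Eya2 binding was read as AlphaScreen signal after compounds were pinned into GST-Six1 plus His-tagged Eya2 (5X stock 250/500 nM) in pH 8.0 Tris/NaCl/TCEP buffer, beads added, then incubated 1 h, 37 C, dark.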
PINK1 expr mod: A Quantitative High throughput Screen to Identify Chemical Modulators of PINK1 Expression; AID 624263, 2012; PINK1 immunofluorescence, high-content cytometry, 24 h; 410,000 compounds, 0.2% hits; Potency, µM (doses to about 76.6 µM), for the others: top-dose activation (PINK1 increase), most hits filed as activators; active = well fitted activation curve with a large enough effect; inconclusive = small, poorly fitted or top-dose-only effect; inactive = flat fitted curve, though single readings scatter; cell line not stated here;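 note: potency is the fitted concentration of half-maximal effect; % of control where 0% means no effect; nearly all actives have a fitted effect of over 65% in size; a mitochondrial uncoupler was the plate control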
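Readout is PINK1 immunofluorescence, quantified alongside mitochondrial, cell and nuclear markers by laser-scanning microplate cytometry. Cells from a stable line were exposed to compound titrations (5 concentrations) for 24 hours, with CCCP controls.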
Active calls of the source: *; ? = inconclusive; · = no result given; & = joins results of further samples; [ ] = another dose, or the depositor's remark.

structure	Six1-Eya2 blk	TRPML1 inh	CtBP-E1A blk	D2 agonist	TRPML1 agonist	PINK1 expr mod
CCOC(=O)c1cc(-c2ccccc2)nc2c(O)cccc12	1	-4	-1	-2.2	4.3	7.1%
Cn1[nH]c(C(F)(F)F)c(C=NCc2ccc(Cl)cc2)c1=O	-6	-5	·	-2.7	-0.4	-0.1%
COC(=O)C1(NC(=O)NC23CC4CC(CC(C4)C2)C3)CCCCC1	5	14	·	-4.1	0.7	-0.8%
O=C(c1cnc(Cl)c(Cl)c1)N1CCN(S(=O)(=O)c2cccs2)CC1	5	29	0	-0.8	-1.1	-0.9%
COc1cccc(C(=O)N/N=C/c2ccc(OC3CSC3)cc2)c1	-6	-3	2	-0.1	-0.4	8.3%
CC1(C)N=C(N)NC(=NCCCOc2ccc([N+](=O)[O-])cc2)N1	9	·	0	-7.2	0.0	1.7%
COc1cccc(OC)c1C(=O)Nc1cccc(-c2cn3ccsc3n2)c1	·	-5	·	·	-0.7	0.7%
CC(C)NC(=O)N(C)C[C@H]1OCc2cnnn2CCCC(=O)N([C@@H](C)CO)C[C@H]1C	0	-6	-7	-3.7	-0.2	-1.4%
COc1cccc(CNC(=O)c2c(C)oc3ncnc(N4CCOCC4)c23)c1	·	4	·	·	1.1	-14%
CCC(C)NS(=O)(=O)c1ccc(NC(=O)C2CCN(C(=O)c3ccco3)CC2)cc1 (stereo not drawn)	7	-23	-12	1.0	-0.2	-0.2%
Cc1noc(C)c1C(=O)Nc1sc(C)c(-c2ccccc2)c1C#N	2	5	9	-2.6	-0.4	28µM*
CCc1nnc(NS(=O)(=O)c2ccc(NC(=O)c3ccco3)cc2)s1	-1	22	-7	-1.8	-0.5	0.2%
O=C(CN1C(=O)NC2(CCCCCC2)C1=O)NCCc1ccccc1	5	4	2	-6.3	-0.3	1.8%
O=C(Nc1cccc(NC(=O)c2ccco2)c1)c1ccc2c(c1)OCO2	-11	1	2	-0.8	0.4	5.2%[38.3 µM]
Cc1nc2c3ccccc3nc(NNC(=O)CCC(=O)N3CCN(c4ccc(F)cc4)CC3)n2n1	5	-10&73	-1	-0.9	-0.3&-0.2	-0.4%&-1.4%
COc1ccc(C(=O)N2CC=C(c3ccccc3)CC2)cc1S(=O)(=O)N1CCOCC1	1	-5	-1	1.4	-0.3	-0.2%
CC1=CN2C(=N)/C(=C/c3ccc(Sc4ccc(C)cc4)o3)C(=O)N=C2S1	-25	12	-21	-4.9	2.1	10%
CCc1cc2c(-c3ccccc3)cc(=O)oc2cc1OC(=O)c1cccs1	-6	4	·	-3.7	1.7	0.8%
CCOC(=O)Cc1csc(NC(=O)CSc2nc(=O)[nH]c3c2CCCC3)n1	-16	4	-1	-1.7	-1.2	0.3%
COc1cc(/C=C/C(=O)OCC(=O)NCc2ccccc2OC)ccc1O	2	6	-17	-2.1	2.2	2.0%
COc1cccc(N2C(=O)CC(c3c[nH]c4ccccc34)C2=O)c1 (stereo not drawn)	-10	-1	-4	-2.1	-0.3	-1.1%
CCCCc1ccc(NC(=O)CSCc2cc(=O)[nH][nH]2)cc1	-1	1	5	0.8	0.8	6.4%[38.3 µM]
Cc1ccc(S(=O)(=O)N2CCN(C(=O)COC(=O)/C=C/c3ccc(OC(F)F)cc3)CC2)cc1	-13	2	-21	-1.4	-0.2	0.8%
CC(=O)Nc1ccc(S(=O)(=O)Nc2cc(-c3ccccc3)nn2C)cc1	5	-5	3	-4.3	-0.1	0.3%
CN1CCN(C(=O)c2ccccc2NC(=O)c2ccccc2)CC1	0	-18	0	0.3	0.2	-0.4%
CCCCNc1nc2c(c(=O)n(Cc3ccc(Cl)cc3)c(=O)n2C)n1C	·	-7	·	·	-0.2	-0.8%
CC(=O)N(C(C)=O)c1nc2nc(C)cc(C)n2n1	17	-4	9	-3.5	0.4	1.0%
CCOc1ccc(OCCC(=O)N(CC)CC(=O)NCc2ccc(Cl)cc2)cc1	-6	12	6	-2.1	2.7	-3.1%
CC1Cc2nc(SCC(=O)N3CCN(c4ccccc4)CC3)n(CCc3ccccc3)c(=O)c2S1 (stereo not drawn)	-26	22	-8	0.3	1.7	0.2%
Cn1nc([N+](=O)[O-])nc1Oc1ccccc1C(=O)N1CCOCC1	12	12	5	-6.7	-0.3	0.2%
CC(C)N1CCc2c(sc(NC(=O)c3cc4cc([N+](=O)[O-])ccc4s3)c2C(N)=O)C1	1	-3	-4	-6.6	0.1	-1.4%
CCOC(=O)CCSc1nc2c(c(C(F)(F)F)c1C#N)CCC2	68	-3	84	-2.1	1.1	-0.4%[38.3 µM]
CC(=O)c1ccc(N2CCN(C(=O)c3cc(-c4ccncc4)nc4ccc(Cl)cc34)CC2)cc1	9	4	0	0.0	0.0	-2.1%
CCc1nnc(NC(=O)CS(=O)(=O)Cc2ccccc2)s1	1	21	9	-0.1	-0.1	1.0%
Cc1c(-c2ccccc2)c(=O)oc2c(CN3CCN(C)CC3)c(O)ccc12	·	-3	·	·	-0.8	1.3%
OC[C@@H]1CN(Cc2ccc(-c3ccccc3)cc2)C[C@H](n2cnc3c(NCc4ccco4)ncnc32)O1	-12	26	-10	9.0	2.3	0.2%
O=C1CCc2ccccc2O1	3	24	4	0.7	0.6	2.6%
Cc1cccc(C(=O)OCC(=O)NNC(=O)c2cccs2)c1O	-3	-1	1	?	-0.3	2.1%
COc1ccc(N2CCN(C(=O)c3cc(NS(=O)(=O)c4ccc(F)cc4)ccn3)CC2)cc1	·	-10	·	·	-1.3	0.1%
Cc1ccc2c(c1)c1c(n2CC(O)Cn2c(C)nc3ccccc32)C(=O)CCC1 (stereo not drawn)	3	-7	1	-2.6	-0.7	-0.6%

A portion from the list above:
structure	Six1-Eya2 blk	TRPML1 inh	CtBP-E1A blk	D2 agonist	TRPML1 agonist	PINK1 expr mod
CCOc1ccc(OCCC(=O)N(CC)CC(=O)NCc2ccc(Cl)cc2)cc1	-6	12	6	-2.1	2.7	-3.1%
CC1Cc2nc(SCC(=O)N3CCN(c4ccccc4)CC3)n(CCc3ccccc3)c(=O)c2S1 (stereo not drawn)	-26	22	-8	0.3	1.7	0.2%
Cn1nc([N+](=O)[O-])nc1Oc1ccccc1C(=O)N1CCOCC1	12	12	5	-6.7	-0.3	0.2%
CC(C)N1CCc2c(sc(NC(=O)c3cc4cc([N+](=O)[O-])ccc4s3)c2C(N)=O)C1	1	-3	-4	-6.6	0.1	-1.4%
CCOC(=O)CCSc1nc2c(c(C(F)(F)F)c1C#N)CCC2	68	-3	84	-2.1	1.1	-0.4%[38.3 µM]
CC(=O)c1ccc(N2CCN(C(=O)c3cc(-c4ccncc4)nc4ccc(Cl)cc34)CC2)cc1	9	4	0	0.0	0.0	-2.1%
CCc1nnc(NC(=O)CS(=O)(=O)Cc2ccccc2)s1	1	21	9	-0.1	-0.1	1.0%
Cc1c(-c2ccccc2)c(=O)oc2c(CN3CCN(C)CC3)c(O)ccc12	·	-3	·	·	-0.8	1.3%
OC[C@@H]1CN(Cc2ccc(-c3ccccc3)cc2)C[C@H](n2cnc3c(NCc4ccco4)ncnc32)O1	-12	26	-10	9.0	2.3	0.2%
O=C1CCc2ccccc2O1	3	24	4	0.7	0.6	2.6%
Cc1cccc(C(=O)OCC(=O)NNC(=O)c2cccs2)c1O	-3	-1	1	?	-0.3	2.1%
COc1ccc(N2CCN(C(=O)c3cc(NS(=O)(=O)c4ccc(F)cc4)ccn3)CC2)cc1	·	-10	·	·	-1.3	0.1%
Cc1ccc2c(c1)c1c(n2CC(O)Cn2c(C)nc3ccccc32)C(=O)CCC1 (stereo not drawn)	3	-7	1	-2.6	-0.7	-0.6%

Remaining list, next part.
structure	Six1-Eya2 blk	TRPML1 inh	CtBP-E1A blk	D2 agonist	TRPML1 agonist	PINK1 expr mod
O=C(Cn1cc(C(F)(F)F)ccc1=O)N/N=C/c1ccc(Cl)c(Cl)c1	18	-1	23	0.9	-0.5	2.0%
COC(=O)c1c(NC(=O)CSc2nncs2)sc2c1CCCCC2	-9	-10	-8	3.3	0.8	1.7%[38.3 µM]
COC(=O)C1=C(C)N(CCCC(=O)O)C(=O)NC1c1cccc(Cl)c1Cl (stereo not drawn)	-4	-18	5	-2.8	-0.6	1.5%
c1ccc(C[C@H]2CNCCN2CC2(c3ccccc3)CC2)cc1	5	14	·	-3.5	0.2	1.0%
CCOc1ccc(C(=O)NCC(=O)N2CC=C(c3ccccc3)CC2)cc1OCC	-2	4	-3	-0.2	1.9	0.3%
Cc1ccc(/C=C/C(=O)N2CCN(Cc3ccccc3)CC2)o1	-5	-4	-1	-1.6	-1.0	0.4%
CC(c1ccco1)N(C(=O)c1cc(Cl)cc(Cl)c1)c1ccccn1 (stereo not drawn)	-7	1	-3	-2.5	0.8	-0.4%
COc1ccc2nc(Nc3nc4cc5c(cc4s3)OCO5)sc2c1	19	-4	1	-5.1	-0.3	?
CC(C)CCN1C(=O)C2(OCCCO2)c2cc(Cl)ccc21	31	13	25	-1.6	1.1	?
Cc1ccc(NC(=O)N(Cc2ccco2)C(C)c2ccco2)cc1C (stereo not drawn)	-13	4	-9	-2.1	1.4	-0.3%[38.3 µM]
CCOC(=O)C1(CCc2ccccc2)CCN(C(=O)Cc2nonc2C)CC1	5	8	7	-0.7	-2.1	-0.3%
CCc1ccccc1NC(=O)Cn1nnc(C(=O)NCc2ccccc2Cl)c1N	·	-5	·	·	3.3	?
COc1ccc(S(=O)(=O)N(C)C[C@H]2Oc3ccc(NC(=O)Cc4cn(C)c5ccccc45)cc3C(=O)N([C@@H](C)CO)C[C@@H]2C)cc1	-8	-4	-7	1.1	1.0	0.9%
Cc1ccc(C(=O)Nc2nnc(S(=O)(=O)N(C)Cc3ccco3)s2)cc1	·	-11	·	·	1.3	1.8%
Cc1cc(C(=O)COC(=O)CC2Sc3ccccc3NC2=O)c(C)n1-c1cccc(C(F)(F)F)c1 (stereo not drawn)	-2	21	·	0.4	2.2	3.4%

Rows were taken by chance. Share with any hit: about 1%.
